Screens from PubChem.
Tgondii IFNg: T. gondii growth inhibition with IFN-gamma, primary screen, cell-based | Toxoplasma gondii growth in IFN-gamma-treated host cells; hits give low values; reference of the scale not given here | activity change, negative = inhibition, %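 (about 20 µM by stock and volumes)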 | actives 3.8% (n = 69,000) | AID 1259416, 2018;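 active means below -70%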;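 further: host cells are HeLa cells infected with Toxoplasma gondii; parasite growth read as luciferase light; one replicate is shown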
Numbers without * were called inactive; & = joins results of further samples. Some of the compounds tested; count on the stated rates, not on these rows.

SMILES	Tgondii IFNg
O=C1CCc2cc(S(=O)(=O)N3CCC4(CC3)OCCO4)cc3c2N1CCC3	136.6
O=C(c1ccccc1C1CCNC1)N1CCCN(c2ncccn2)CC1 (stereo not drawn)	1.6
CCNc1nc(C)c(C(=O)N2CCC(c3nn(C)c(=O)n3CC)CC2)s1	61.8
CCOC(=O)C1CN(C(=O)c2ccsc2)Cc2ncn(CC)c21 (stereo not drawn)	2.3
NC(=O)c1csc(N2CCC(CO)(CC3CCCCO3)CC2)n1 (stereo not drawn)	2.1
CO[C@@H]1CN(C)C(=O)c2cc(NC(=O)Nc3ccccc3Cl)ccc2OC[C@@H](C)N(S(=O)(=O)CC(F)(F)F)C[C@H]1C	14.8
Cc1nn(Cc2ccccc2)c(C)c1CC(=O)NCCn1ccnc1	-8.4
Cc1onc(C(=O)N(C)C)c1-c1ccnc(=S)[nH]1	50.8
OC[C@@H]1[C@H](c2ccc(Br)cc2)[C@@H]2CNCCCCN12	4.6
COc1ccc(C2(C(=O)N3CCCC(O)(CO)C3)CC2)cc1 (stereo not drawn)	4.3
CC(=O)N(CC(C)C(=O)O)c1c(I)cc(I)c(N)c1I (stereo not drawn)	28.9
CC(=O)N1C2CCN(C(N)=O)CC2C[C@H]1Cn1cncn1 (stereo partly drawn)	2.4
CNC(=O)c1cccc(-c2cc(NCc3cccnc3)nc3[nH]ccc23)c1	28.2
COc1ccc(S(=O)(=O)N2C[C@H](O)COC[C@H]3O[C@H](CC(=O)N[C@H]4CCN(Cc5ccccc5)C4)CC[C@@H]32)cc1	7.0
CCOc1ccc2nc(NC(=O)CSc3nnc(-c4ccco4)n3C)sc2c1	316.9
Cc1ccc(/C=C/C(=O)N2CCC(c3nc(C(=O)N4CCCCC4)c(C)o3)CC2)cc1	72.7
COc1ccc(Cl)cc1N1C(=N)SCC1=O	-1.8
CC(C)Cc1cc(C(=O)N(C)Cc2nc(-c3ccccn3)no2)n(C)n1	0.9
O=C1c2ccccc2C(=O)N1Cc1ccc(C2Nc3ccccc3-c3cccn32)o1 (stereo not drawn)	74.1
COc1ccc(F)c(CN(C)C(C)c2ccncc2)c1Cl (stereo not drawn)	11.5
O=S(=O)(Nc1ccc(S(=O)(=O)N2CCOCC2)cc1)c1cccs1	9.6
Cc1oc(-c2ccccc2)nc1Cn1nnc(-c2nc(-c3ccc(Cl)cc3)no2)c1C	9.9
CCOC(=O)N1CCC(N2CC(=O)N(CC3CCOCC3)CC(OCc3ccccn3)C2)CC1 (stereo not drawn)	-5.9
CC(C)c1ccc(C(=O)N(Cc2ccco2)C(C)C(C)C)c(=O)n1C (stereo not drawn)	-14.3
Cc1c(Cl)cccc1NC(=O)CC(=O)NC(C)c1ncn[nH]1 (stereo not drawn)	-2.7
c1csc(C(Cc2ccsc2)NCc2ccc(N3CCOCC3)cc2)n1 (stereo not drawn)	75.9
O=C(Nc1ccc(-c2nc(-c3cccc(Br)c3)co2)cc1)Nc1ccc2c(c1)OCCO2	33.9
CCNC(=O)C[C@@H]1CC[C@H]2[C@@H](COC[C@H](O)CN2C(=O)C2CCCC2)O1	14.7
N#Cc1ccc(-c2cccc(-c3nc(C(=O)O)cc4c3[C@@H](CCO)N(CC3CCOCC3)C4)c2)cc1	51.2
COC(=O)c1sccc1NC(=O)CCN1[C@@H]2CC[C@H]1CC(O)C2 (stereo partly drawn)	3.5

An excerpt of these results, field by field:
CCOC(=O)N1CCC(N2CC(=O)N(CC3CCOCC3)CC(OCc3ccccn3)C2)CC1 (stereo not drawn)
- Tgondii IFNg = -5.9
CC(C)c1ccc(C(=O)N(Cc2ccco2)C(C)C(C)C)c(=O)n1C (stereo not drawn)
- Tgondii IFNg = -14.3

Copied from the list.
For Tgondii IFNg, CNC(=O)c1cccc(-c2cc(NCc3cccnc3)nc3[nH]ccc23)c1 has 28.2
For Tgondii IFNg, CC(C)c1ccc(C(=O)N(Cc2ccco2)C(C)C(C)C)c(=O)n1C (stereo not drawn) has -14.3

The listing continues:
SMILES	Tgondii IFNg
N#CCN1CCCn2cnc(COCc3ccco3)c2C1	2.7
Cc1cccc(CN(C(=O)c2csc(C)n2)C(C)C)c1	-1.6
O=C(c1ccc(CO)cc1)N1CC(c2ccncc2)C1	11.4
Cc1cc(C(=O)N2CCc3ncc(CN(C)C(C)C)n3CC2)no1	-42.5
O=C(O)C(F)(F)C(F)(F)C(=O)NCc1ccccc1Cl	-10.4
Cc1ccc(OCC(=O)Nc2ccc(-c3nc(-c4ccc(C)cc4C)co3)cc2)cc1	-43.3
Cc1ccccc1-c1cn[nH]c1C1CCN(c2ncccc2C(=O)O)CC1	9.7
OCCN(CCO)c1ccc2ccccc2c1	18.3
COc1ccc2c(-c3c(-c4ccccc4)ncn3CCO)cn(C)c2c1	-10.8
O=C(CC1N=C2c3ccccc3N=C(SCc3ccccc3F)N2C1=O)NCc1ccccc1 (stereo not drawn)	-18.5
CCc1noc(CN(CC)C(=O)c2ccnc(NC)c2)n1	-0.8
CNC[C@H]1Oc2ncc(-c3cncnc3)cc2C(=O)N([C@@H](C)CO)C[C@H]1C	89.7
CN(Cc1ccccc1)CC(O)COc1ccc(CNCc2cccnc2)cc1 (stereo not drawn)	-51.9
Cc1ccc2[nH]cc(-c3ccc(-c4nn[nH]n4)cc3)c2c1	18.1
CC(C)c1nnsc1CNC(=O)C(C)n1cnc2ccccc21 (stereo not drawn)	-19.9
O=C(C[C@H]1C=C[C@@H](NC(=O)Nc2cccc(F)c2)[C@H](CO)O1)NCC1CCCCC1	-31.1
Cc1nn(-c2ccccc2)nc1C(=O)Nc1nc(-c2ccc(F)c(F)c2)cs1	16.4
N#C[C@@H]1N[C@H](CO)[C@@H]1c1ccc(C#Cc2ccccc2F)cc1	108.0
c1cc(-c2ccc(C3[C@H]4CNC[C@@H]3N4Cc3nccs3)cc2)ccn1 (stereo partly drawn)	-9.3&-2.1
C[C@@]1(O)CCN(C(=O)c2[nH]ncc2Cl)C[C@@H]1Cc1ccccc1	0.3
CC(=O)Nc1ccc(CN2C[C@H]3C(=O)Nc4ccccc4C(=O)N[C@@]3(C)C2)cc1	-13.7
CC(=O)NCCc1csc(C2CCN(C(=O)Nc3cc(F)ccc3F)CC2)n1	-19.1
O=C(CSc1ncccn1)N1CCN(c2ccccc2)CC1	14.3
COc1cccc(N2CCN(C(=O)C3CC4(CCNCC4)CN3)CC2=O)c1 (stereo not drawn)	-40.3
CC(C)c1nc(CN(C)Cc2ccc3ccccc3n2)cs1	14.0
Cc1nnc([C@@H]2CC[C@H]3[C@H](CCN3Cc3cccs3)O2)o1	18.7
Cc1cccc(NC(=O)c2c(O)c3cccnc3n(-c3cccc(F)c3)c2=O)c1C	16.6
CCOCC1CN(Cc2c(C)noc2C)Cc2cncn2C1 (stereo not drawn)	-0.5
O=C(Cn1cc(C(=O)c2cccs2)c2ccccc21)NCc1ccccc1	13.4
Cc1cc(C)cc(NC(=O)CC(=O)NCc2ccc3c(c2)CC(C)O3)c1 (stereo not drawn)	62.3
Cc1c(C)c2c(c(C)c1O)CCC(C)(C(=O)N1CCn3cncc3C1)O2 (stereo not drawn)	-4.5
COc1ccccc1-c1nc2cnccn2c1NCCC(=O)N1CCCC(C)C1 (stereo not drawn)	66.1
CCn1nc(C)c(CN(CCOC)c2ncnc3oc(C)nc23)c1C	121.2
O=C(Cn1c(=O)cc(C(=O)N2CCc3ccccc3C2)c2ccccc21)Nc1ccccc1F	8.8
CN(C)C(=O)COCc1ncn2c1CN(c1ncc(F)cn1)CCC2	-5.4
CO[C@@H]1CN(C)C(=O)c2ccc(NC(=O)c3ccc4c(c3)OCO4)cc2OC[C@@H](C)N(Cc2ccc3c(c2)OCO3)C[C@H]1C	-80.1*
CCCNC[C@@H]1[C@@H](c2ccc(C3=CCCCC3)cc2)[C@@H](CO)N1C(=O)C1CCC1	12.0
COc1cccc2c1OCCCN(c1ccc(-c3nccn3C)nn1)C2	225.8
c1cc(C2CN(Cc3cc(C4CCCCC4)no3)C2)ccn1	-34.5
CCc1ccccc1NC(=O)c1c(O)c2cccnc2n(-c2cccc(OC)c2)c1=O	19.2
CCCN1C(=O)CCc2cc(NC(=O)c3ccsc3)ccc21	-47.2
O[C@@H]1CN(c2ncnc3nc[nH]c23)CC[C@H]1N1CCN(c2ccccc2F)CC1	-14.6
CCc1ccccc1Nc1nc(-c2ccc(OC)cc2)nc2ccccc12	-22.5
CCn1c(Cn2nnc(-c3ccccc3)n2)nnc1SCC(=O)Nc1cccc(C)c1C	18.2
CC(C)[C@@H]1C(=O)N[C@@H](c2cccc(Cl)c2)CC=CC[C@@H](C)Oc2ccccc2C(=O)N1C (mixture of isomers)	-19.1
COc1ccc(N)c(Sc2ccc(Cl)cc2)n1	-52.6
Cn1cc(CN2CCC(c3ccn[nH]3)C2)c2ccccc21 (stereo not drawn)	16.5
O=C(NCCn1nnc2ccccc21)c1cc(C2CC2)[nH]n1	119.9
COc1ccc(C(C)N(C)CC2=COCCO2)cc1 (stereo not drawn)	10.3
CSc1nc2c(=S)[nH]c(=S)[nH]c2s1	28.3
COCCN1C(=O)CCC12CCC(NC(=O)c1c(C)noc1C)CC2 (stereo not drawn)	-29.8
COc1ccc(C#Cc2ccc3c(c2)[C@H]2[C@H](CCN2C(=O)C2CCOCC2)[C@H](CO)N3)cc1	-9.0
C=CC(=O)Nc1cc2c(Nc3ccc(F)c(Cl)c3)ncnc2cc1C#CC(C)(C)N1CCN(C)CC1	-71.8*
CCc1onc(C)c1C1CCCN1Cc1cn(CC)c2ccc(OC)cc12 (stereo not drawn)	-3.3
CC(C)C(NC(=O)c1cc(-c2ccncc2)c2cnccc2n1)c1cccs1 (stereo not drawn)	-87.3*
N#C[C@H]1[C@@H](c2ccccc2C2=CCCC2)[C@H](CO)N1C(=O)c1cccc(F)c1	18.3
OCc1ccc(CN(Cc2ccncc2)Cc2ccc(F)cc2)o1	-7.7
CCO[C@H]1COC[C@@H]1NC(=O)C(=O)N1CCc2ccccc21	6.4
CN(C)CCO[C@H]1CN(S(=O)(=O)c2ccccc2)[C@H]2COC[C@@H]12	-0.5
COc1ccc2c(c1)OC(C)CN(CC(=O)NC(c1ccncc1)c1ccc(F)cc1)C2 (stereo not drawn)	3.6

By substructure: those above with a furan ring, fused or not.
SMILES	Tgondii IFNg
CCOc1ccc2nc(NC(=O)CSc3nnc(-c4ccco4)n3C)sc2c1	316.9
O=C1c2ccccc2C(=O)N1Cc1ccc(C2Nc3ccccc3-c3cccn32)o1 (stereo not drawn)	74.1
CC(C)c1ccc(C(=O)N(Cc2ccco2)C(C)C(C)C)c(=O)n1C (stereo not drawn)	-14.3
N#CCN1CCCn2cnc(COCc3ccco3)c2C1	2.7
OCc1ccc(CN(Cc2ccncc2)Cc2ccc(F)cc2)o1	-7.7

(list continues)
SMILES	Tgondii IFNg
NCCCC[C@@H]1NC(=O)[C@@H](Cc2c[nH]c3ccccc23)NC(=O)[C@H](c2ccccc2)NC(=O)[C@@H]2C[C@@H](OC(=O)NCCN)CN2C(=O)[C@H](Cc2ccccc2)NC(=O)[C@H](Cc2ccc(OCc3ccccc3)cc2)NC1=O	-63.0
Cn1c(NC(=O)CN2CCc3[nH]c4c(Cl)cccc4c3C2)cc(=O)n(C)c1=O	4.9
O=C(O)CCc1ncc(-c2ccc(Cl)cc2)o1	34.5
CN(Cc1ccccc1N1CCOCC1)C(=O)c1cnc(-c2ccc(Cl)cc2)nc1	21.6
COc1cc(C(=O)NCc2ccc(-c3nn(C)cc3-c3ccncc3)cc2)nc(OC)n1	-101.6*
CC(C)CC(NS(=O)(=O)c1ccc2[nH]c(=O)ccc2c1)C(=O)Nc1cccc2c1CCCC2 (stereo not drawn)	-11.7
CC(C(=O)O)c1ccc(N2Cc3ccccc3C2=O)cc1 (stereo not drawn)	154.9
Cc1cc(C(=O)N2CCN(c3ncccc3C#N)CC2)no1	11.8
Cc1cccc(S(=O)(=O)N2CC[C@@H]3[C@H]2c2cc(-c4ccccc4F)ccc2N[C@@H]3CO)c1	-57.5
Cn1c(=O)c(-c2nc(-c3ccc(Cl)cc3)no2)c(O)c2cc(F)ccc21	30.8
CC1CCc2[nH]nc(C(=O)NCCCc3ccco3)c2C1 (stereo not drawn)	78.4
C[C@@H](NC(=O)[C@@H]1[C@@H](CO)[C@@H]2Cn3c(cccc3=O)[C@@H]2N1CCC(F)(F)F)c1ccccc1	-1.8
NC1(C(=O)O)CCN(Cc2ccc3occc3c2)C1 (stereo not drawn)	-5.6
Cc1ccc(Cl)cc1NC(=O)Cn1ncc2c(N3CCN(c4ccccn4)CC3)ncnc21	-52.9
Cc1nn(Cc2ccccc2)c(N)c1C#N	105.9
Cn1cc(C(=O)N2CCCC(O)(CO)CC2)c2ccccc21 (stereo not drawn)	8.9
O=C(Nc1ccc(F)cc1)c1nc(Nc2ccc(Cl)cc2)c2ccccc2n1	-8.4
Cc1ccc2[nH]c(C(=O)N3CCCC3c3cc(C)no3)c(C)c2c1 (stereo not drawn)	8.1
CC(C)NC(=O)N1CC[C@@H]2[C@H]1c1cc(-c3ccc(F)cc3)ccc1N(C)[C@@H]2CO	-62.8
Cc1ccnc(NCCNCc2nnc(-c3ccc(C)n3C)o2)c1	7.0
COc1cccc(-n2c(=O)c(C(=O)Nc3ccccc3Cl)c(O)c3cccnc32)c1	65.1
CCOC(=O)N1CCC(NC(CC)c2cc(C)ccn2)CC1 (stereo not drawn)	-4.4
